Assay outcomes from PubChem.
Calb FLC = C. albicans growth modulation with fluconazole; 0.57% of 300,000 active; AID 1979; C. albicans CaCi-2 (fluconazole-resistant clinical isolate) + fluconazole, Alamar Blue growth, 48 h; growth inhibition, % (test concentration not listed);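 active means most replicates above 75%; inconclusive means exactly half above 75%; inactive means most below 75%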;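 further: all wells also contain fluconazole at 8 µg/ml as a sub-toxic cotreatment; 0% = median of DMSO wells and 100% = median of geldanamycin control wells; wells of about 8 µL received 7.5 nL stock; the first replicate is given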
T cruzi inh = blocks replication of Trypanosoma cruzi. T. cruzi beta-gal in NIH3T3, luminescence, 90 h. inhibition, % (no concentration beside the values). 1.4% of 300,000 active. AID 1885;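 active means mean inhibition across valid replicates above about 55%, limit read from the data; inconclusive means mean below that limit but half or more replicates reach it; inactive means mean below it, under half of replicates reach it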;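 further: signal also drops with host cell toxicity which is not excluded here; 0% = plate median of DMSO wells and 100% = zero luminescence signal; higher percent means less beta-gal luminescence so fewer parasites; stock transfer was 50 nL into about 50 µL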
Beta apoptosis = beta cell apoptosis inhibition. 0.8% of 300,000 active. protection from apoptosis, % (concentration not given with the values). AID 435005. INS-1E cytokine-induced death, ATP luminescence, 48 h; percent of positive-control rescue, neutral wells zero;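 active means all replicates at 75% or more, or half of them and the mean; inconclusive means half reach 75% but not the mean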;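 further: 0% = cytokine-treated negative control wells and 100% = positive control rescue; higher means more ATP so stronger rescue from cytokine killing; wells of about 40 µL received 100 nL stock; the first replicate is given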
Bfl-1 A1 inh = inhibitors of the anti-apoptotic protein A1, read as caspase activation. AID 2462. MEF A1-2A-BIM cells, Caspase-Glo 3/7 luminescence, 3 h; percent of clofoctol response, vehicle zero. caspase activation, % (no concentration beside the values). 0.066% of 330,000 active;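 active means over half of replicate activation scores above 10%, or exactly half above 10 with the replicate mean above 10; inconclusive means replicate mean below 10 yet half the replicates above 10; inactive means over half of replicates below 10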;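 further: wells of about 30 µL received 50 nL stock; many hits fall short of the cut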
RanGTP-Imp inh = disruptors of Ran-importin-beta complex formation – biochemical, FRET, CFP-Ran, YFP-importin-beta, homogeneous, primary screen; 1.1% of 300,000 active; inhibition, % (no concentration beside the values); cell-free CFP-Ran/YFP-importin-beta FRET ratio; AID 2216;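 active means most replicates above 15%; inconclusive means exactly half above 15%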;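 further: 0% = DMSO wells and 100% = Ran loaded with GDP instead of GTP; wells of about 40 µL received 100 nL stock; the first replicate is given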
Beta2AR agonist = human beta-2 adrenergic receptor agonism by FAP. P07550. Am2.2-beta2AR cells, FAP receptor internalization, flow cytometry; reference of the scale not given here. response, % (no concentration beside the values). 0.43% of 340,000 active;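 active means response above a set limit, near 3 SD of response in nonfluorescent compounds, cut at about 42% in these data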;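 further: stock transfer was 100 nL into about 11 µL; a reference agonist was the positive control; negative values mostly stem from fluorescent compounds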
Target sequence (P07550 whole entry, looked up): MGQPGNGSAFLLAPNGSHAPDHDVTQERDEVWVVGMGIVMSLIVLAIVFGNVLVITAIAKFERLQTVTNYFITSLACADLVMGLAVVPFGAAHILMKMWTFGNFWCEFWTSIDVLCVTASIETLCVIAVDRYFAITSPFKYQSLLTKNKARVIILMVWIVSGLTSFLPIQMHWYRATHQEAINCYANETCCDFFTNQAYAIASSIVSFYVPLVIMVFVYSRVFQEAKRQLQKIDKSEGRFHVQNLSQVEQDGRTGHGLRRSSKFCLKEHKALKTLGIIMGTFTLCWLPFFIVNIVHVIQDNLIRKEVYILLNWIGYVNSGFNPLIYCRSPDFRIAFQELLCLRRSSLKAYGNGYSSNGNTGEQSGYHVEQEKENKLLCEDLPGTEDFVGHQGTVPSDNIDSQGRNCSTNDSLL
UCH37 DUB inh = blocks the human deubiquitinase UCH37 | AID 588478 | purified proteasome/UCH37, Ub-AMC cleavage fluorescence | 0.33% of 330,000 active | Q9Y5K5 | inhibition, % (concentration not given with the values);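 active means mean of two replicates above 20%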;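 further: 0% = compound-free wells with enzyme and 100% = wells lacking proteasome; stock transfer was 100 nL into about 20 µL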
Target sequence (Q9Y5K5 whole entry, looked up): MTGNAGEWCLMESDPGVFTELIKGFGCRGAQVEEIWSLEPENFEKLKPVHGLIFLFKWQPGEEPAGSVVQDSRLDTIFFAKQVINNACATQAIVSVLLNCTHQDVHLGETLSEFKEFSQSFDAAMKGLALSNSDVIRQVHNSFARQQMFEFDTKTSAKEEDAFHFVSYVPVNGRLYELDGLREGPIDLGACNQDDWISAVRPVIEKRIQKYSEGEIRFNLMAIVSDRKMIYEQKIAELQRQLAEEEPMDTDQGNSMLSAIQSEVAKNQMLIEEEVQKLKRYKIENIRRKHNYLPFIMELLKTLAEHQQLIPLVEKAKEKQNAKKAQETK
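Signal – fluorescence, ex 355 nm, em 460 nm · System – Proteasome-bound UCH37 · Input – 0.15 nM proteasome as dispensed · Timing – 30 min preincubation with enzyme, 25 min cleavage at room temperature · Read-out basis – percent inhibition of cleavage signal versus uninhibited and no-proteasome wells · Medium – Tris-HCl pH 7.4 with ATP-MgCl2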
LANA-H2A inh = blocks KSHV LANA binding to histone H2A/H2B | Q9QR71 | cell-free LANA-H2A/H2B peptide, fluorescence polarization | inhibition, % (test concentration not listed) | 0.6% of 320,000 active | AID 2629; in the data active means inhibition mostly above about 10%, no sharp cut-off; inactive means mostly below about 6.7%;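 further: stock transfer was 7.5 nL into about 10 µL; 0% = median of vehicle wells and 100% = median of positive control wells; one replicate is shown; the record names a cut of 25% in any replicate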
* marks the source's active call; other numbers are inactive results; ? = inconclusive; . = no result given. An unsorted share of the library (roughly 4.3% active in at least one column).

SMILES	Calb FLC	T cruzi inh	Beta apoptosis	Bfl-1 A1 inh	RanGTP-Imp inh	Beta2AR agonist	UCH37 DUB inh	LANA-H2A inh
O=C(N/N=C/c1cccc(OC(=O)c2ccc([N+](=O)[O-])cc2)c1)c1cccnc1	-12	-37	0	1.1	-1.3	-2	.	-1.2
COc1cccc(N2CCN(C(=O)C3CCN(S(=O)(=O)c4ccc5c(c4)CC(C)N5C(C)=O)CC3)CC2)c1 (configuration not stated)	0	6	7	1.3	-2.8	2	0.5	-3.8
Cc1ccc[n+](CC(=O)Nc2ccc(Cl)c([N+](=O)[O-])c2)c1	-14	-11	0	0.2	4.4	-7	6.0	-3.3
COC/C=C/C1=CC2=CC(=O)C(C)(OC(=O)c3cnc4ccccc4n3)C(=O)C2=CN1CCCOC(C)C (configuration not stated)	5	-11	-20	0.0	7.9	-13	2.2	0.7
COCCNC(=O)/C(C#N)=C/c1cc(C)n(-c2ccc(C)cc2)c1C	0	10	3	-0.9	4.6	1	2.4	-5.3
Cc1ccccc1-n1ccnc1SCC(=O)Nc1cccc(S(=O)(=O)NC2=NCCC2)c1	.	.	-6	-0.5	.	0	1.0	-0.8
CCOc1ccc(Cn2nnc(C(=O)NCCc3ccccc3)c2N)cc1	2	28	3	0.9	1.5	-5	-0.6	-4.6
N/C(=N\OC(=O)C(c1ccccc1)c1ccccc1)c1ccccn1	?	26	-2	-1.5	-1.8	58*	2.6	0.1
O=C(COC(=O)c1ccc(N2CCCC2=O)cc1)NCc1ccco1	-4	-14	5	0.7	2.4	-6	-1.0	-0.3
Cc1ccccc1NC(=O)C1CCN(C(=O)N2CCOc3ccccc32)CC1	8	-7	-7	0.0	?	-8	-0.5	2.5
CC(C)(C)NC(=O)N1CCC(CO)(Cc2ccccc2Cl)CC1	-3	-2	10	-0.6	-0.3	9	4.0	.
CCOC(=O)c1c(S(=O)(=O)Nc2cccc(-c3ccno3)c2)c(C)n(C)c1C	4	0	.	1.0	4.5	-5	1.9	-5.6
CC(=O)OCC1=C(C(=O)O)N2C(=O)C(NC(=O)c3ccc(COc4cccc(Cl)c4Cl)o3)C2SC1 (configuration not stated)	6	?	3	?	4.8	-6	2.3	5.0
O=c1cc(-c2ccc3c(c2)OCO3)oc2ccccc12	-14	5	3	-2.0	1.0	-14	-81	1.4
Cc1ccc(-c2csc(NC(=O)c3ccc(C)o3)n2)cc1	-18	-17	.	-0.9	1.8	8	-6.9	3.1
Cc1cc(C)cc(N(CC(=O)NC2CCCC2)C(=O)C2(C)CC(=O)N=C3C=CC=CN32)c1 (configuration not stated)	-9	-8	-9	1.4	-2.8	-3	-305	-0.3
COC(=O)c1ccc(C2c3c(oc4ccccc4c3=O)C(=O)N2CCCN2CCOCC2)cc1 (configuration not stated)	4	-3	-3	-0.5	4.6	-12	1.6	-0.1
O=C(Nc1ccccc1-c1ccccc1)C12CC3CC(CC(C3)C1)C2	2	27	-2	2.0	0.5	-1	0.8	1.6
Cn1c(=O)c2sccc2n2c(CCCC(=O)NCc3cccnc3)nnc12	15	-9	-4	1.5	1.8	-4	0.9	4.4
COc1ccc(COC(=O)C2CC(=O)N(Cc3ccc(C)cc3)C2)cc1 (configuration not stated)	0	-9	-3	0.0	-3.1	2	-1.2	-0.9
Cc1c(Cc2ccc3c(c2)OCO3)sc(NC(=O)c2ccc3ccccc3c2)c1C(N)=O	9	-10	27	-0.2	1.1	.	-77	-2.3
COc1ccc(/C(N)=N/OC(=O)CCc2ccccc2)cc1OC	12	-1	-4	?	-1.3	8	2.1	-1.2
CCc1ccc(S(=O)(=O)/N=C2\C=C(Nc3cccc(C(=O)O)c3)C(=O)c3ccccc32)cc1	47	-2	52	0.0	-0.7	16	.	-9.6
Cc1cccc(/C=N/NC(=O)c2ccc(NC(=O)c3ccccc3Cl)cc2)n1	4	-16	-7	-0.4	6.2	-2	.	-3.6
CCOC(=O)CSc1ncnc2c1cnn2-c1ccc(Cl)cc1	7	-14	-2	-8.8	2.7	9	0.3	1.5
COc1cc(C(=O)Nc2ccn(C)n2)ccc1OC(F)F	.	.	-4	1.4	.	-3	3.3	-1.6
COc1ccc(NC(=O)CCC(=O)Nc2nnc(CC(C)C)s2)cc1Cl	-5	-16	.	0.5	3.3	6	1.4	4.0
Fc1ccc(Nc2nc(-c3ccncc3)nc3ccccc23)cc1	-19	36	13	0.0	-4.5	26	-2.1	3.6
CCOc1cc(S(=O)(=O)NCc2ccc3c(c2)OCO3)c(C)cc1C	-45	-8	-3	-0.1	-4.0	-4	3.7	1.1
Cc1cc(C)cc(Nc2ccc3nonc3c2[N+](=O)[O-])c1	9	12	-1	-0.4	0.9	-12	2.9	-3.2
CC1CCCCN1C(=O)CN1C(=O)CSc2ccc(S(=O)(=O)N3CCOCC3)cc21 (configuration not stated)	1	0	-1	2.3	1.8	4	0.7	-0.2
Cc1cc(-c2nnc3n2N=C(c2ccc(F)cc2)CS3)n[nH]1	20	12	-16	0.9	3.4	-11	2.6	4.6
CC(=O)c1cccc(NC(=O)C(C)OC(=O)c2ccc(Br)o2)c1 (configuration not stated)	.	.	-4	1.0	.	-7	0.7	-1.5
O=C(OCC(=O)N1CCCC1)c1cnc(Cl)c(Cl)c1	.	.	-6	-0.6	.	-12	0.2	-5.6
Cc1ccc2cc(CCNC(=O)c3ccc(S(=O)(=O)N4CCOCC4)cc3)c(=O)[nH]c2c1	-4	-5	-3	0.5	-4.9	4	4.4	0.7
CCOC(=O)C1CCN(C(=O)c2cccc(S(=O)(=O)N3c4ccccc4CC3C)c2)CC1 (configuration not stated)	.	.	-6	0.1	.	1	0.6	2.7
CN(C1CCCCC1)S(=O)(=O)c1ccc(NC(=O)Cn2nc(-c3ccc(F)cc3)ccc2=O)cc1	-6	16	13	-0.3	3.2	9	-2.1	-1.6
CCCCN=c1sc(C(=O)OC)cc(=O)n1CCCC	4	-5	10	0.0	1.3	0	0.9	-2.3
CCOC(=O)N1CCN(C(=O)CSc2nc(=O)n3cc(C)ccc3n2)CC1	-1	-17	.	1.0	1.6	3	-3.5	-11
Cc1cccc([C@@H](NC(=O)OC(C)(C)C)C(=O)OC(C)(C)C)c1	.	.	5	-0.5	.	-13	1.1	4.5
COc1ccc(CCNC(=O)c2cccc(C(=O)NCCc3ccc(OC)cc3)n2)cc1	-7	15	2	-0.5	5.3	-6	2.3	5.3
COC(=O)c1ccc(CSc2nnnn2C)o1	-6	1	-6	0.1	5.0	8	1.1	-2.0
CSC[C@@H]1NC(=S)N(c2ccc(C)cc2)C1=O	-6	-21	4	23*	-1.6	6	2.2	-0.6
Cn1c(CCNC(=O)c2ccc(F)cc2)nc2ccccc21	6	-4	1	0.0	-1.4	-5	2.9	9.4
CCN(CC(=O)NCc1cccs1)C(=O)c1ccc(S(=O)(=O)N(CC)c2ccccc2)cc1	.	.	0	-1.1	.	4	-2.4	-2.7
O=C(CCc1ccccc1)N1CCCC(Nc2ccc(F)cc2)C1 (configuration not stated)	-3	12	0	0.5	2.6	6	-0.4	2.9
COc1ccc2c(c1)Sc1ccccc1N2	1	44	.	.	2.5	-3	2.1	.
CC(C)C[C@H](NC(=O)c1nc[nH]c1C(=O)NCCNC(=O)OC(C)(C)C)C(=O)CNCCNC(=O)c1[nH]cnc1C(=O)N[C@@H](C)C(=O)OC(C)(C)C	.	.	-4	0.1	.	4	5.9	-2.6
Cc1ccc(Cn2c(C3CCCN3c3nc(-c4ccc(F)cc4)cs3)nc3cc(C(=O)NCCCO)ccc32)cc1 (configuration not stated)	3	20	-9	0.0	0.0	5	1.6	-0.1
COc1ccc(OC)c(C(=O)C2COC(=O)C2)c1 (configuration not stated)	-8	4	-7	0.1	3.4	-1	-4.0	-0.7
COC(=O)c1c(C)[nH]c(C(=O)CSc2nnnn2-c2ccccc2)c1C	-6	0	1	0.3	-1.3	-1	-1.5	-4.3
Cc1ncccc1C(=O)N1CCCC(C(=O)c2ccc3c4c(cccc24)CC3)C1 (configuration not stated)	4	9	2	-0.6	5.4	-2	-147	-1.1
CC(=O)c1ccccc1NC(=O)COC(=O)Cc1cccc(C(F)(F)F)c1	.	.	-7	0.2	.	2	2.4	3.0
CCn1nc(NS(=O)(=O)c2ccccc2)c2cc3ccc(C)cc3nc21	-2	-14	.	-0.9	1.1	3	5.2	-4.0
Cc1ccc(N2OC3C(=O)NC(=O)C3C2c2ccco2)cc1 (configuration not stated)	-6	-4	-2	0.2	-0.8	1	4.9	-0.3
Cc1ccc(CNC(=O)c2sc3ccc(S(=O)(=O)N4CCCCC4)cc3c2N)cc1	?	4	0	1.0	-3.4	.	-25	-5.2
COc1cccc(NC(=O)c2cccc(OC)c2OC)c1	21	17	-1	-5.1	6.8	-1	0.9	3.2
O=C(Nc1nnc(N2CCCCCC2)s1)c1cc(-c2ccc(Br)cc2)on1	6	2	-2	0.0	-0.4	6	-6.7	2.5
Cc1ccc(C(=O)NC(C)c2ccccc2)cc1Br (configuration not stated)	7	6	-5	0.3	0.5	-3	0.7	-0.9
COc1ccc(NC(=O)CC2Oc3ccc(C)cc3NC2=O)cc1 (configuration not stated)	-5	-8	-5	1.4	-1.0	4	0.8	-1.6

(next part)
SMILES	Calb FLC	T cruzi inh	Beta apoptosis	Bfl-1 A1 inh	RanGTP-Imp inh	Beta2AR agonist	UCH37 DUB inh	LANA-H2A inh
Cc1cc(=O)oc2c(C)c(OCC(=O)N3CCN(c4cccc(Cl)c4)CC3)ccc12	?	35	5	0.0	0.9	-2	-12	-1.9
C[C@H]1C[C@H]2[C@@H]3CCC4=CC(=O)C=C[C@]4(C)[C@@]3(F)[C@@H](O)C[C@]2(C)[C@@]1(O)C(=O)CO	1	-3	.	1.7	-1.3	4	-1.8	9.5
Cc1cccc(-c2nnc(SCC(=O)N3c4ccccc4CCc4ccccc43)n2C)c1	14	3	-1	0.6	-2.5	-13	5.2	-1.4
COc1ccc(OC)c(CN2CCN(C(=O)c3cccc(S(=O)(=O)Nc4ccc(C)cc4)c3)CC2)c1	6	27	.	0.7	8.9	4	0.4	-5.8
O=C(Cn1cnc2c(oc3ccccc32)c1=O)NCC1CCCO1 (configuration not stated)	-5	3	-3	1.0	-3.0	2	-0.3	1.3
O=C(Cn1cc(C(F)(F)F)ccc1=O)N/N=C/c1ccc(Cl)c(Cl)c1	7	8	-2	0.9	0.8	-1	.	5.6
O=C(Nc1ccc(C2CC2(Cl)Cl)cc1)c1ccccc1Br (configuration not stated)	-2	14	7	-0.7	-1.0	3	0.8	-3.1
COc1ccc(CNC(=O)CCc2ccc(S(=O)(=O)N3CCCCCC3)cc2)cc1	.	.	-5	0.8	.	3	0.4	0.3
CCCc1ncc(C(O)(c2ccccc2)c2ccc(C)cc2)n1C (configuration not stated)	10	5	4	-1.4	4.3	0	-0.5	-13
